Bioassay records as filed in PubChem BioAssay.
HSV augment: enhancers of HSV replication in host cells, fold increase, host cell viability; HSV replication augmentation in cells; maximum fold increase; hit rate 0.005% among 220,000; AID 1956, 2009;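 active means peak rise of 1.5-fold or more in the series; tested in PC3 cells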;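 further: first round at 10 µM; read as green reporter fluorescence; hits show the peak of a series up to 25 µM; 1 = signal of infected wells without compound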
INS promoter inh: inhibitors of insulin promoter-driven GFP, primary screen, imaging, TRM-6 cells (human fetal islet line), eGFP reporter, cell count; reporter expression induced with tamoxifen; inhibition, % at 2 µM; hit rate 0.9% among 130,000; AID 1273, 2008;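 active means inhibition above the mean plus 3 SD, with well images judged a real hit on visual review, cut at about 60% in these data, passing the limit was not always enough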
PKD1 kinase inh: inhibitors of human PKD1 kinase, biochemical, fluorescence polarization; PKD1 kinase fluorescence polarization assay; inhibition, %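 (about 10 µM by stock and volumes)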; hit rate 0.056% among 200,000;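 active means inhibition of 50% or more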;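 further: controls were vehicle for no effect and a reference inhibitor for full effect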
Target sequence (Q15139 whole entry, looked up): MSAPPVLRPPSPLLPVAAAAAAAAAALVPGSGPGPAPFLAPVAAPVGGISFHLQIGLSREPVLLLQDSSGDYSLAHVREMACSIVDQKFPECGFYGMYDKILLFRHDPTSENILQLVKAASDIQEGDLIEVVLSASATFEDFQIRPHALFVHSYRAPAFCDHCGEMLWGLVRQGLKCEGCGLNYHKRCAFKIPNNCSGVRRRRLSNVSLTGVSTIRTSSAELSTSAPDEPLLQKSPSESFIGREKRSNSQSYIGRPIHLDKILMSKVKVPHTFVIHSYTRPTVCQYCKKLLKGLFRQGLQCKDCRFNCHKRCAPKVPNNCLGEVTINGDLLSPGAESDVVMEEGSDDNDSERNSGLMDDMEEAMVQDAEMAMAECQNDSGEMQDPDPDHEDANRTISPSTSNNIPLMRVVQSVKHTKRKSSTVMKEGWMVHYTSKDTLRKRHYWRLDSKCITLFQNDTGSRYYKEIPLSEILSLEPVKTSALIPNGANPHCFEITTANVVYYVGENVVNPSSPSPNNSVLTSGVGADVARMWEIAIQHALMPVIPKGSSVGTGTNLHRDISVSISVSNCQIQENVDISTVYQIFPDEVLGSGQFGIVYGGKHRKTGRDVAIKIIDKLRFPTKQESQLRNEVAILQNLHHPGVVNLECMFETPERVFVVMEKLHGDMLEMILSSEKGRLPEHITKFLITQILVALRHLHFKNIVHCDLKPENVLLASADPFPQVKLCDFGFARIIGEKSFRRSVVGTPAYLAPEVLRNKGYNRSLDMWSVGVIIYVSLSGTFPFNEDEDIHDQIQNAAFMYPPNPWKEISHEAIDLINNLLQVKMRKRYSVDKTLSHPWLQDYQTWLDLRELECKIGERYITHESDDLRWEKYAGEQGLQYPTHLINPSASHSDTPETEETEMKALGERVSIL
RGS16-Gao: modulators of RGS16 binding to Galphao, primary screen, biochemical, human proteins, multiplexed bead flow cytometry | binding response (% of control), % at 10 µM | hit rate 0.38% among 220,000 | Regulator of G-protein signaling 16 (Homo sapiens) + Guanine nucleotide-binding protein … | bead-based flow cytometry RGS16-Galphao binding, fluorescence; actives lie on both sides;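 active means below 25% or above 175%, edge rows of some plates excepted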;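 further: Galphao activated by GDP with aluminum fluoride before binding; 100% = wells without compound and 0% = beads without RGS; some results beyond the cut were filed as inactive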
GALR2 agonist: GALR2 receptor agonists, primary screen, cell-based; hit rate 0.48% among 140,000; AID 803, 2007; GALR2-expressing cells, agonist activation read-out; activation, %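 (tested at 5 µM)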;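 active means above mean plus 3 SD of all compounds, about 5% in these data, not always enough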;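 further: 0% = vehicle buffer wells and 100% = reference agonist at full effect; tested in CHO reporter cells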
INS promoter inh cell count: further read-out of INS promoter inh, marked with its call; normalized cell count, %; measured here: cell count, toxicity; reference of the scale not given here;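 cells exposed to compound for 48 h; stained nuclei by imaging scaled within each plate; lower means fewer cells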
HSV augment primary fold: further read-out of HSV augment, marked with its call; fold increase; compound at 10 µM; measured here: primary screen fold increase 10 uM; tested in PC3 cells;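 GFP signal in the first replicate; 1 = infected wells without compound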
Numbers without * were called inactive; i = inactive; . = not tested or not shown.

SMILES | HSV augment | HSV augment primary fold | INS promoter inh | INS promoter inh cell count | PKD1 kinase inh | RGS16-Gao | GALR2 agonist
CCc1cccc(N(C(=O)c2csnn2)C(C(=O)NC(C)(C)C)c2ccccn2)c1 (centres undefined) | i | 1.1 | -50 | 88 | -11 | 100 | .
Cc1ccc(NC(=O)Nc2ccc3oc(C)nc3c2)cc1 | i | 0.95 | 0 | 54 | -6 | 110 | -1.0
C1CCC2(CC1)OCC1(CO2)COC2(CCCCC2)OC1 | i | 1.1 | -19 | 118 | -4 | 109 | -2.6
c1coc(-c2nc3nc4ccccc4nc3n2-c2ccc3c(c2)OCCO3)c1 | i | 0.96 | 15 | 79 | -12 | 99 | -0.1
Cc1cnn(C(=S)NCc2ccco2)c1 | i | 0.8 | -14 | 94 | -8 | 99 | -2.0
CCOC(=O)N1CCN(CC(O)COCc2ccc(OC)c(OC)c2)CC1 (centres undefined) | i | 0.98 | -20 | 86 | -4 | 100 | 0.0
O=C(Nc1cccn(Cc2c(Cl)cccc2Cl)c1=O)C1CC1 | i | 1 | . | . | 3 | 99 | .
CCc1nc(C)ccc1OCC(=O)NCCCN(C)C | i | 0.96 | 38 | 129 | -8 | 185 | -0.3
COCCNC(=O)c1cnn2c(C(F)(F)F)cc(-c3ccc4c(c3)OCO4)nc12 | i | 0.86 | . | . | -2 | 87 | -2.9
O=C(O)CCc1cccnc1 | i | 0.97 | . | . | . | 105 | .
COc1cc(OC)nc(NC(=O)CCl)n1 | i | 0.93 | -37 | 100 | -1 | 105 | -2.7
CCN(CC)CCC/C(=N\O)C(O)(c1ccccc1)c1ccccc1 | i | 0.96 | . | . | 2 | 107 | .
Cc1ccccc1OCCNC(=O)/C=C/c1ccc([N+](=O)[O-])cc1 | i | 1.1 | . | . | 2 | 100 | 0.3
Clc1ccccc1-c1nc(/C=N/N2CCOCC2)c2ccccn12 | i | 1.1 | . | . | -4 | 103 | .
CC1=NN(c2ccc(F)cc2)C(=O)C1C(c1cccc(O)c1)c1c(C)[nH]n(-c2ccc(F)cc2)c1=O (centres undefined) | i | 0.98 | 47 | 106 | -9 | 95 | -2.6
Cc1cc(C(=O)CSc2nnc(-c3ccco3)o2)c(C)n1Cc1ccco1 | . | . | -7 | 95 | -10 | 94 | -0.9
O=C(/C=C\Nc1ccccn1)c1ccccc1 | i | 0.92 | -58 | 97 | -12 | 104 | -1.3
CCn1c(COc2ccc(C)cc2)nnc1SCC(=O)Nc1cc(OC)ccc1OC | i | 1.1 | . | . | -3 | 102 | -0.2
Cc1[nH]c2ccccc2c1C(=O)CN1CCC2(CC1)OCCO2 | i | 1.1 | -51 | 75 | 1 | 103 | -0.2
CCCCNC(=S)N(C)/N=C/c1ccc(OCc2ccc(C(=O)OC)cc2)c(OC)c1 | i | 1 | 32 | 77 | 3 | 100 | -2.3
CC(C)Oc1ccccc1OCCN(C)C | i | 0.98 | 46 | 85 | -10 | 107 | -1.2
O=C(Nc1ccc([N+](=O)[O-])cc1)c1cc(-c2ccccn2)nc2c(Cl)cccc12 | i | 0.85 | . | . | -7 | 88 | .
CN(C)/C=C(/C(=O)c1ccc(F)cc1)S(=O)(=O)c1ccc(F)cc1 | i | 1.3 | . | . | -3 | 99 | .
Cc1cc(NC(=O)CSc2ccc3nnc(-c4ccccc4)n3n2)no1 | i | 0.94 | . | . | 4 | 96 | 0.5
COc1ccc(C2=NOC(C(=O)NC(C)(C)C)C2)cc1 (centres undefined) | i | 0.72 | 27 | 85 | -4 | 103 | -2.0
COc1ccc(CN2CCN(CC(O)Cn3c4ccccc4c4ccccc43)CC2)cc1 (centres undefined) | i | 0.68 | 11 | 151 | -8 | 100 | 2.1
COc1ccc(C(=O)Nn2cnnc2)c(OC)c1 | i | 0.92 | -31 | 208 | -7 | 93 | -3.7
Cn1nccc1C(=O)Nn1cnnc1 | i | 1 | . | . | -2 | 102 | 20*
C/C(=C\c1ccccc1)CN(C)CCN(C)C | i | 0.93 | . | . | -32 | 105 | -3.0
O=C(COC(=O)c1cccnc1Cl)NCC1CCCO1 (centres undefined) | i | 0.96 | . | . | -7 | 102 | .
O=C(O)c1cnn2c1NC(c1ccc(F)cc1)CC2C(F)(F)F (centres undefined) | i | 0.92 | 37 | 155 | -2 | 92 | -2.4
O=S(=O)(Nc1cccc(-c2cn3cccnc3n2)c1)c1ccc(-c2ccccc2)cc1 | . | . | 7 | 105 | -15 | 100 | -2.5
CCN1CCN(C(=O)CCc2nc3ccccc3c(=O)[nH]2)CC1 | i | 1.2 | 37 | 96 | -10 | 102 | -2.6
C/C(=N\NC(=O)c1ccc(N/N=C(\C)c2ccc(O)cc2)cc1)c1ccc(O)cc1 | i | 0.72 | . | . | . | 101 | .
COC(=O)c1cc(OC)c(OC)cc1NC(=S)N1CCCCC1 | i | 0.87 | -11 | 125 | -3 | 100 | -2.5
CCn1c(C)c(CS(=O)(=O)c2ccccc2)[nH]c1=O | i | 1 | . | . | -5 | 99 | .
Cc1ccccc1Cn1c(O)c(N=NC(=S)Nc2ccccc2F)c2ccccc21 | i | 1 | . | . | 8 | 105 | .
CC(C)NC(=O)NS(=O)(=O)c1cnccc1NC1CC2CCC1C2 (centres undefined) | i | 1.2 | -94 | 85 | 3 | 104 | -2.2
COc1cccc(CNC(=O)CSc2ccc(-c3ccccn3)nn2)c1 | i | 0.98 | 0 | 104 | -2 | 111 | .
Cc1cc(NC(=O)CSc2nnc(-c3ccco3)n2Cc2ccccc2)no1 | i | 0.89 | -31 | 111 | -5 | 106 | -3.6
Cc1cccc(CCNC(=O)C2CCC(=O)N2Cc2ccc(F)cc2)c1 (centres undefined) | i | 0.99 | -3 | 120 | 3 | 100 | 0.7
COC(=O)CSc1nnc(SCc2ccc(Cl)cc2)s1 | i | 0.91 | 3 | 227 | -3 | 110 | -2.8
Cc1nonc1C(=O)N/N=C/c1ccc([N+](=O)[O-])o1 | i | 0.87 | . | . | -1 | 97 | .
CCC1CCCCN1C(=O)COc1cc(=O)n(C)c2ccccc12 (centres undefined) | i | 0.95 | . | . | 15 | 131 | -0.9
CCC(C(=O)NCc1ccncc1)c1ccccc1 (centres undefined) | i | 1.1 | -17 | 85 | 6 | 112 | .

10 compounds from above, sorted by formula weight, highest first:
SMILES | HSV augment | HSV augment primary fold | INS promoter inh | INS promoter inh cell count | PKD1 kinase inh | RGS16-Gao | GALR2 agonist
O=S(=O)(Nc1cccc(-c2cn3cccnc3n2)c1)c1ccc(-c2ccccc2)cc1 | . | . | 7 | 105 | -15 | 100 | -2.5
Cc1cc(NC(=O)CSc2nnc(-c3ccco3)n2Cc2ccccc2)no1 | i | 0.89 | -31 | 111 | -5 | 106 | -3.6
Cc1cccc(CCNC(=O)C2CCC(=O)N2Cc2ccc(F)cc2)c1 (centres undefined) | i | 0.99 | -3 | 120 | 3 | 100 | 0.7
CC(C)NC(=O)NS(=O)(=O)c1cnccc1NC1CC2CCC1C2 (centres undefined) | i | 1.2 | -94 | 85 | 3 | 104 | -2.2
COC(=O)CSc1nnc(SCc2ccc(Cl)cc2)s1 | i | 0.91 | 3 | 227 | -3 | 110 | -2.8
COC(=O)c1cc(OC)c(OC)cc1NC(=S)N1CCCCC1 | i | 0.87 | -11 | 125 | -3 | 100 | -2.5
CCN1CCN(C(=O)CCc2nc3ccccc3c(=O)[nH]2)CC1 | i | 1.2 | 37 | 96 | -10 | 102 | -2.6
CCn1c(C)c(CS(=O)(=O)c2ccccc2)[nH]c1=O | i | 1 | . | . | -5 | 99 | .
Cc1nonc1C(=O)N/N=C/c1ccc([N+](=O)[O-])o1 | i | 0.87 | . | . | -1 | 97 | .
CCC(C(=O)NCc1ccncc1)c1ccccc1 (centres undefined) | i | 1.1 | -17 | 85 | 6 | 112 | .

The main list resumes; the two compounds before the break are reprinted first.
SMILES | HSV augment | HSV augment primary fold | INS promoter inh | INS promoter inh cell count | PKD1 kinase inh | RGS16-Gao | GALR2 agonist
CCC1CCCCN1C(=O)COc1cc(=O)n(C)c2ccccc12 (centres undefined) | i | 0.95 | . | . | 15 | 131 | -0.9
CCC(C(=O)NCc1ccncc1)c1ccccc1 (centres undefined) | i | 1.1 | -17 | 85 | 6 | 112 | .
Cc1cc(NC(=O)COC(=O)CCCOc2ccc(Cl)cc2C)no1 | i | 0.84 | 46 | 70 | -7 | 100 | -2.6
O=C(NCCc1c[nH]c2ccccc12)c1cc(S(=O)(=O)N2CCCCC2)ccc1N1CCOCC1 | i | 0.87 | -14 | 80 | 8 | 100 | 0.3
O=C(O)c1ccc(CSCc2ccccc2F)o1 | i | 0.98 | 25 | 181 | -11 | 104 | -2.2
COc1cc(C(=O)NC2CC3CCCC(C2)N3CC(=O)Nc2ccccc2)cc(OC)c1OC (centres undefined) | i | 0.87 | -23 | 89 | -3 | 102 | -0.2
Cn1c(SCC(=O)NCc2ccco2)nc2ccccc2c1=O | i | 1.1 | . | . | 4 | 97 | -1.6
Cc1ccc(S(=O)(=O)NCCCCCC(=O)N(C)C)cc1 | i | 0.81 | -7 | 90 | -6 | 96 | 0.0
S=c1nc(-c2ccccc2Cl)[nH][nH]1 | i | 1 | . | . | -3 | 107 | .
CC(=O)c1ccc([C@@H]2C[C@]34CN(Cc5cccc(C(F)(F)F)c5)S(=O)(=O)[C@H]3C[C@H]2O4)cc1 | i | 0.96 | . | . | . | 96 | .
COc1ccc(/C=C2\SC(=O)N(CC(=O)Nc3cccnc3)C2=O)cc1OC | i | 0.8 | 50 | 51 | -9 | 108 | .
CC(C)CCn1c(=O)c2ccccc2n2c(CN3CCOCC3)nnc12 | i | 0.92 | 36 | 140 | -2 | 110 | .
CC(=O)NC1C(c2nc3ccccc3s2)=C(c2ccccc2)C(=O)N1c1ccc(C)cc1 (centres undefined) | i | 0.82 | 3 | 105 | -3 | 103 | -2.0
Cc1nc2ccccc2n1CCN1CCOCC1 | i | 1.1 | . | . | 13 | 87 | .
CCCCn1nnnc1SCC(=O)N1CCCC1 | i | 0.91 | -38 | 109 | -11 | 115 | 0.1
CSc1nc(SCC(=O)NCc2ccco2)c2c3c(sc2n1)CN(C)CC3 | i | 1.1 | . | . | -8 | 83 | -2.0
CCCN(CCC)C(=O)CCS(=O)(=O)c1cccc2nsnc12 | i | 1.1 | -78 | 104 | -18 | 98 | 3.5
O=C(c1nc2ncccn2n1)N1CCc2ccccc2C1 | i | 0.99 | -44 | 116 | -11 | 101 | -0.3
Cc1nnc(SCC(=O)Nc2ccccc2)n(N)c1=O | i | 0.86 | -67 | 188 | -5 | 105 | .
CCOc1ccc(C(=O)N(CN2CCCC2=O)c2cccc(Cl)c2)cc1 | i | 1.1 | . | . | 4 | 97 | .
O=C(O)Cn1cc(/C=c2/sc3nc4ccccc4n3c2=O)c2ccccc21 | i | 0.97 | 36 | 73 | -1 | 108 | .
NC(=O)NC(=O)CSc1nc(-c2ccccc2)c(-c2ccccc2)n1CC1CCCO1 (centres undefined) | i | 0.98 | -47 | 87 | -7 | 101 | -2.4
COc1ccccc1CNS(=O)(=O)c1c(C)[nH]c(=O)[nH]c1=O | i | 0.78 | -29 | 123 | -9 | 124 | -3.8
O=C(CN1CCN(c2ccccc2O)CC1)Nc1ccc([N+](=O)[O-])cc1Br | i | 0.85 | 55 | 74 | -5 | 101 | .
Brc1ccccc1-c1nnc(CSc2nnnn2-c2ccccc2)o1 | . | . | . | . | 3 | 98 | -2.3
COc1cccc(CNC(=O)CCC2CCCN(Cc3cc(Cl)ccc3O)C2)c1 (centres undefined) | i | 1 | . | . | -2 | 102 | .
CCOC(=O)N1CCC(NC(=O)c2cc(C(=O)Nc3cccc(OC)c3)ccc2CO)CC1 | i | 0.85 | . | . | -1 | 104 | -0.1
C1=C(N2CCOCC2)/C(=C/c2nc3ccccc3[nH]2)CC1 | i | 1.1 | . | . | . | 86 | .
CCOC(=O)c1sc(NC(=O)c2ccc(C)o2)nc1C | i | 0.89 | . | . | -14 | 104 | -1.1
CCN(CC)S(=O)(=O)c1ccc(/C=C/C(=O)OCC(=O)Nc2cccc3ccccc23)cc1 | i | 0.87 | . | . | -13 | 106 | -0.7
Cc1c(NC(=O)CCSCCc2ccccn2)cccc1[N+](=O)[O-] | i | 1 | -46 | 81 | -3 | 102 | .
Cc1cc(/C=C2/C(=O)NN(c3ccccc3)C2=O)c(C)n1-c1cccc(O)c1 | i | 1.1 | . | . | -18 | 93 | -0.4
CCNC(=O)CCc1nc(-c2ccc(C(C)(C)C)cc2)no1 | i | 0.85 | 7 | 125 | 6 | 105 | 0.0
CCCCCCNC(=O)CSc1nccn1Cc1ccccc1 | i | 0.79 | -29 | 137 | 1 | 98 | -0.8
C/C(N)=C(/C#N)C(=O)COC(=O)c1cccc(C)c1O | i | 0.87 | . | . | . | 101 | .
COc1ccc(CC(=O)N(CC2CCCO2)c2nc3ccccc3s2)cc1 (centres undefined) | i | 1.1 | . | . | 0 | 101 | -0.2
